Screening data: PubChem, several laboratories
GALR2 agonist = activates the human galanin receptor 2; O43603; actives 0.48% (n = 140,000); GALR2-expressing cells, agonist activation read-out; activation, %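 (tested at 5 µM)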;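 active means above mean plus 3 SD of all compounds, about 5% in these data, not always enough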;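 further: 0% = vehicle buffer wells and 100% = reference agonist at full effect; tested in CHO reporter cells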
PKD1 kinase inh = inhibitors of human PKD1 kinase | Q15139 | PKD1 kinase fluorescence polarization assay | inhibition, %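 (about 10 µM by stock and volumes)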 | actives 0.056% (n = 200,000) | AID 797;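 active means inhibition of 50% or more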;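 further: controls were vehicle for no effect and a reference inhibitor for full effect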
Target sequence (Q15139 whole entry, looked up): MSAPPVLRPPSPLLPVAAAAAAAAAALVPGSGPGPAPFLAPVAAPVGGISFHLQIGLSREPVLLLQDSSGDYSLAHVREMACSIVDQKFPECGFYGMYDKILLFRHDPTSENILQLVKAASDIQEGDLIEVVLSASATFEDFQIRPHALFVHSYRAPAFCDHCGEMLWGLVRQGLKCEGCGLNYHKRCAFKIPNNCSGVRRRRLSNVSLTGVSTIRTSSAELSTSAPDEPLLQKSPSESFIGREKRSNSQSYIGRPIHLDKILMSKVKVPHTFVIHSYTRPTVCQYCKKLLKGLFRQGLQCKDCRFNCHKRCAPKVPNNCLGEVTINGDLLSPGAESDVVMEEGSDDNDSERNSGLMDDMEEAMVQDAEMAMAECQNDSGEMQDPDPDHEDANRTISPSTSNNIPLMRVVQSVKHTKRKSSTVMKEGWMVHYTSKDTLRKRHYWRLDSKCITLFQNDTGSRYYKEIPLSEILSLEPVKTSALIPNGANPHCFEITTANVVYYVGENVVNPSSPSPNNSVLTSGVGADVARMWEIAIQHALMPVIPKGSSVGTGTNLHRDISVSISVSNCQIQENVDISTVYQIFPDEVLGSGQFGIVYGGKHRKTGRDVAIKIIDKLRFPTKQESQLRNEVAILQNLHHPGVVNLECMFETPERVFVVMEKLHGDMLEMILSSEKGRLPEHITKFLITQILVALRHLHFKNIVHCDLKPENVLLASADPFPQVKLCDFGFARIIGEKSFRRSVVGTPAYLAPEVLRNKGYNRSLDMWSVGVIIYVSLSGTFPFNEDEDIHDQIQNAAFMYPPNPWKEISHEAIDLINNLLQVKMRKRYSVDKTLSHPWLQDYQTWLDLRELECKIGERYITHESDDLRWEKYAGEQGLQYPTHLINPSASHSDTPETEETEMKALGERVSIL
RGS16-Gao HTS = modulates binding between human RGS16 and Galphao | bead-based flow cytometry RGS16-Galphao binding, fluorescence; actives lie on both sides | binding response (% of control), % at 10 µM | AID 1441 | actives 0.38% (n = 220,000);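 active means below 25% or above 175%, edge rows of some plates excepted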;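 further: Galphao activated by GDP with aluminum fluoride before binding; 100% = wells without compound and 0% = beads without RGS; some results beyond the cut were filed as inactive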
HSV replic up = HSV replication enhancement; HSV replication augmentation in cells, fold increase; maximum fold increase; actives 0.005% (n = 220,000); AID 1956;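 active means peak rise of 1.5-fold or more in the series; tested in PC3 cells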;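 further: first round at 10 µM; read as green reporter fluorescence; hits show the peak of a series up to 25 µM; 1 = signal of infected wells without compound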
INS promoter inh = TRM-6 insulin promoter activity inhibition; TRM-6 cells (human fetal islet line), insulin promoter-eGFP reporter, imaging; reporter expression induced with tamoxifen; inhibition, % at 2 µM; actives 0.9% (n = 130,000); AID 1273;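 active means inhibition above the mean plus 3 SD, with well images judged a real hit on visual review, cut at about 60% in these data, passing the limit was not always enough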
INS promoter inh cell count = further read-out of INS promoter inh, marked with its call; normalized cell count, %; measured here: cell count, toxicity; reference of the scale not given here;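 cells exposed to compound for 48 h; stained nuclei by imaging scaled within each plate; lower means fewer cells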
HSV replic up primary fold = second read-out of HSV replic up, no call of its own (marks repeat the call); fold increase; compound at 10 µM; measured here: primary screen fold increase 10 uM; tested in PC3 cells;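 GFP signal in the first replicate; 1 = infected wells without compound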
Numbers without * were called inactive.

Screening Cc1[nH]nc(S(=O)CC(=O)O)c1[N+](=O)[O-] (stereo unspecified) returned PKD1 kinase inh 3, RGS16-Gao HTS 98, HSV replic up inactive and HSV replic up primary fold 0.94.
Screening CCCSC1=C(C#N)C(c2ccccc2C)C(C(=O)OC)C(=O)N1 (stereo unspecified) returned GALR2 agonist -1.4, PKD1 kinase inh 6, RGS16-Gao HTS 99, HSV replic up inactive, INS promoter inh -69, INS promoter inh cell count 126 and HSV replic up primary fold 0.82.
For COC(=O)c1c(NC(=O)Cc2ccccc2)sc2c1C(C(=O)OC)CC2 (stereo unspecified) the results were PKD1 kinase inh 3, RGS16-Gao HTS 101, HSV replic up inactive and HSV replic up primary fold 1.
COc1ccc(NC(=O)ON=C2c3ccccc3-c3ccccc32)cc1 was read as GALR2 agonist -2.0, PKD1 kinase inh 41, RGS16-Gao HTS 108, HSV replic up inactive and HSV replic up primary fold 0.76.
C=CC#CC1(O)CC(C)N(C)CC1C (stereo unspecified) was read as PKD1 kinase inh 3, RGS16-Gao HTS 113, HSV replic up inactive, INS promoter inh -14, INS promoter inh cell count 67 and HSV replic up primary fold 0.74.
Screening Cn1c(SCC(=O)N/N=C/c2cccs2)nc2ccccc21 returned GALR2 agonist -0.6, PKD1 kinase inh -2, RGS16-Gao HTS 104, HSV replic up inactive, INS promoter inh -9, INS promoter inh cell count 96 and HSV replic up primary fold 0.95.
For O=C(O)c1cccc2[nH]c(C(F)(F)F)nc12 the results were GALR2 agonist -2.7, PKD1 kinase inh -14, RGS16-Gao HTS 100, HSV replic up inactive, INS promoter inh 25, INS promoter inh cell count 95 and HSV replic up primary fold 0.96.
`N#CCc1ccc(NS(=O)(=O)c2ccc(N3CCCC3=O)cc2)cc1` gave GALR2 agonist -2.1, PKD1 kinase inh -10, RGS16-Gao HTS 103, HSV replic up inactive and HSV replic up primary fold 0.85.
For N/C(Cc1ccc([N+](=O)[O-])cc1)=N\OC(=O)c1ccc([N+](=O)[O-])cc1 the results were GALR2 agonist -1.9, PKD1 kinase inh 2 and RGS16-Gao HTS 105.
CC(Cc1c[nH]c2ccccc12)NC(=O)OCCCl (stereo unspecified) was read as PKD1 kinase inh -4, RGS16-Gao HTS 98, HSV replic up inactive and HSV replic up primary fold 1.1.
For O=C(OCC(=O)N1CCc2ccccc21)c1ccc[nH]c1=O the results were PKD1 kinase inh -1, RGS16-Gao HTS 103, HSV replic up inactive, INS promoter inh 15, INS promoter inh cell count 28 and HSV replic up primary fold 1.1.
COC(=O)CN1C(=O)C2(OCCCO2)c2ccccc21 was read as GALR2 agonist -0.7, PKD1 kinase inh -7, RGS16-Gao HTS 104, HSV replic up inactive, INS promoter inh 27, INS promoter inh cell count 88 and HSV replic up primary fold 1.3.
For CCCC(=O)O[C@@H]1C[C@@H](C)N(C(=O)c2ccccc2)c2ccc(C)cc21 the results were GALR2 agonist -0.1, PKD1 kinase inh -5, RGS16-Gao HTS 102, HSV replic up inactive, INS promoter inh 23, INS promoter inh cell count 95 and HSV replic up primary fold 0.91.
`N=c1n(CCCOc2ccc(F)cc2)c2ccccc2n1CC(N)=O` gave RGS16-Gao HTS 103, HSV replic up inactive and HSV replic up primary fold 0.89.
For COc1ccc(S(=O)(=O)CCC(=O)Nc2cccc(OC)c2)cc1 the results were PKD1 kinase inh 0, RGS16-Gao HTS 113, HSV replic up inactive, INS promoter inh -33, INS promoter inh cell count 73 and HSV replic up primary fold 1.
CCS(=O)(=O)N1CCC(NC(=O)c2ccco2)CC1 was read as GALR2 agonist -1.9, PKD1 kinase inh -3, RGS16-Gao HTS 107, HSV replic up inactive and HSV replic up primary fold 1.1.
`COc1ccc(OCC(=O)Nc2sc3c(c2C(=O)NCC2CCCO2)CCC3)cc1` (stereo unspecified) gave GALR2 agonist 0.6, PKD1 kinase inh -13, RGS16-Gao HTS 105, HSV replic up inactive, INS promoter inh -62, INS promoter inh cell count 69 and HSV replic up primary fold 1.
`COc1ccc(Cl)c2c1[nH]c1nc(SCc3cccnc3)nnc12` gave PKD1 kinase inh 0, RGS16-Gao HTS 107, HSV replic up inactive and HSV replic up primary fold 0.76.
For Cc1ccc(-c2cc(C(=O)Nc3c(C)n(C)n(-c4ccccc4)c3=O)[nH]n2)c(O)c1 the results were GALR2 agonist -0.4, PKD1 kinase inh -12, RGS16-Gao HTS 112, HSV replic up inactive and HSV replic up primary fold 0.96.
For Oc1c(CN2CCN(c3ccccc3)CC2)cc(Br)c2cccnc12 the results were RGS16-Gao HTS 96, HSV replic up inactive and HSV replic up primary fold 0.67.
For CC(C)N1C(=O)CCC1C(=O)N1CCN(c2ccccn2)CC1 (stereo unspecified) the results were GALR2 agonist -0.1, PKD1 kinase inh -12, RGS16-Gao HTS 97, INS promoter inh 50 and INS promoter inh cell count 105.
For CCC12C(=O)C(CC)(C(c3ccccc3)=C1c1ccccc1)[C@@H]1C(=O)N(c3ccc(C)cc3)C(=O)C12 (stereo partly specified) the results were GALR2 agonist -1.9, PKD1 kinase inh 2, RGS16-Gao HTS 100, HSV replic up inactive and HSV replic up primary fold 1.
Screening Cc1cc(N(CCO)CCO)ccc1N=Nc1cc(F)ccc1F returned PKD1 kinase inh 2, RGS16-Gao HTS 104, HSV replic up inactive and HSV replic up primary fold 0.77.
`COc1ccccc1NC(=O)Cc1noc(CSc2nnc(C)n2C)n1` gave PKD1 kinase inh 2, RGS16-Gao HTS 101, HSV replic up inactive, INS promoter inh 0, INS promoter inh cell count 119 and HSV replic up primary fold 0.98.
Screening Cc1cccc(/N=C/c2sc3ccccc3c2O)n1 returned RGS16-Gao HTS 103, HSV replic up inactive and HSV replic up primary fold 1.2.
COc1ccc(/C=C/C=N/NC(=O)COc2ccc(OC)cc2)cc1 was read as GALR2 agonist -0.7, PKD1 kinase inh 8, RGS16-Gao HTS 98, HSV replic up inactive, INS promoter inh 47, INS promoter inh cell count 141 and HSV replic up primary fold 0.82.
CC(OC(=O)c1ccc2c(=O)n3c(nc2c1)CCCCC3)C(=O)Nc1ccc(F)cc1Cl (stereo unspecified) was read as GALR2 agonist -0.5, PKD1 kinase inh -9, RGS16-Gao HTS 106, HSV replic up inactive, INS promoter inh -1, INS promoter inh cell count 106 and HSV replic up primary fold 0.99.
Screening CCOC(=O)C1=C(N)OC2=C(C(=O)CCC2)C1c1ccco1 (stereo unspecified) returned GALR2 agonist -0.5, PKD1 kinase inh 4, RGS16-Gao HTS 220, HSV replic up inactive and HSV replic up primary fold 1.1.
Screening CC(C)(C)S(=O)(=O)/C(C#N)=N/Nc1ccc(S(C)(=O)=O)cc1 returned PKD1 kinase inh 0, RGS16-Gao HTS 84, HSV replic up inactive, INS promoter inh 36, INS promoter inh cell count 86 and HSV replic up primary fold 1.1.
For Cc1ccccc1N1C(S)=C(C#N)C(=O)NC12CCCCC2 the results were GALR2 agonist -0.6, PKD1 kinase inh -12, RGS16-Gao HTS 103, HSV replic up inactive, INS promoter inh 3, INS promoter inh cell count 73 and HSV replic up primary fold 1.
`CCOc1cccc(/C=N/NC(=O)c2cc(-c3cccn3C)n[nH]2)c1O` gave PKD1 kinase inh 2, RGS16-Gao HTS 104, HSV replic up inactive and HSV replic up primary fold 0.94.
`Cc1ccccc1CS(=O)(=O)CC1(O)CCN(C(=O)c2cccc(C(F)(F)F)c2)CC1` gave GALR2 agonist -1.0, PKD1 kinase inh 0, RGS16-Gao HTS 106, HSV replic up inactive, INS promoter inh 23, INS promoter inh cell count 42 and HSV replic up primary fold 0.78.
For Cn1c(CNC(=O)c2ccccc2)nnc1SCC(=O)Nc1nccs1 the results were PKD1 kinase inh -8, RGS16-Gao HTS 100, HSV replic up inactive, INS promoter inh 12, INS promoter inh cell count 102 and HSV replic up primary fold 1.
Brc1ccc(-c2csc3[n+]2CCCCC3)cc1 was read as PKD1 kinase inh -4, RGS16-Gao HTS 103, HSV replic up inactive and HSV replic up primary fold 0.93.
Cc1cnc(C(=O)Nc2cccc3ncccc23)cn1 was read as GALR2 agonist -0.4, PKD1 kinase inh 8, HSV replic up inactive, INS promoter inh -31, INS promoter inh cell count 137 and HSV replic up primary fold 0.94.
`O=C1CCC(CCC(=O)N2CCCC(C(=O)c3ccc(Cl)cc3)C2)=NN1` (stereo unspecified) gave PKD1 kinase inh -5, RGS16-Gao HTS 101, HSV replic up inactive and HSV replic up primary fold 0.96.
For O=C(O)COc1ccccc1/C=N/NC(=O)CSc1nc2ccccc2s1 the results were RGS16-Gao HTS 106, HSV replic up inactive and HSV replic up primary fold 0.98.
Screening CCOC(=O)c1ccc(Oc2nc(OC)nc(N(C)C)n2)cc1 returned GALR2 agonist -0.4, PKD1 kinase inh -10, RGS16-Gao HTS 100, HSV replic up inactive, INS promoter inh -163, INS promoter inh cell count 51 and HSV replic up primary fold 0.78.
COc1cccc(/C=C/C(=O)OCC(=O)Nc2cc(C(F)(F)F)ccc2Cl)c1 was read as GALR2 agonist 0.1, PKD1 kinase inh -2, RGS16-Gao HTS 100, HSV replic up inactive, INS promoter inh 37, INS promoter inh cell count 123 and HSV replic up primary fold 0.97.
CC(C)CN(CC(C)C)S(=O)(=O)N1CCC(C(=O)NCc2cccnc2)CC1 was read as PKD1 kinase inh 10, RGS16-Gao HTS 103, HSV replic up inactive, INS promoter inh -14, INS promoter inh cell count 123 and HSV replic up primary fold 1.
For CN(c1ccccc1)S(=O)(=O)c1cccc(NC(=O)CSc2nncs2)c1 the results were GALR2 agonist -1.3, PKD1 kinase inh -15, RGS16-Gao HTS 100, HSV replic up inactive, INS promoter inh -17, INS promoter inh cell count 108 and HSV replic up primary fold 1.
Screening COc1cccc(CNc2ccc(S(=O)(=O)Nc3nccs3)cc2)c1O returned GALR2 agonist -1.7, PKD1 kinase inh -4, RGS16-Gao HTS 98, HSV replic up inactive, INS promoter inh 44, INS promoter inh cell count 179 and HSV replic up primary fold 1.
COCCCN(C(=O)Nc1ccc(C)c(C)c1)C(C)c1ccccn1 (stereo unspecified) was read as GALR2 agonist -3.0, PKD1 kinase inh 1, RGS16-Gao HTS 100, HSV replic up inactive and HSV replic up primary fold 0.97.
Screening CN(CCc1ccccn1)C(=O)CCC1CCCN(C(=O)CCOc2ccccc2)C1 (stereo unspecified) returned PKD1 kinase inh 4, RGS16-Gao HTS 107, HSV replic up inactive and HSV replic up primary fold 0.93.
C=CCn1c(SCC(=O)c2ccc(O)c(O)c2)nnc1-c1ccccc1OC was read as GALR2 agonist -1.7, PKD1 kinase inh -1, RGS16-Gao HTS 53, HSV replic up inactive, INS promoter inh 15, INS promoter inh cell count 71 and HSV replic up primary fold 0.98.
For NNC(=O)c1cc(-c2ccccc2)sc1N the results were RGS16-Gao HTS 100, HSV replic up inactive and HSV replic up primary fold 1.1.
`COc1ccc(OC)c(-c2nc3ccccc3nc2-c2ccccc2)c1` gave RGS16-Gao HTS 103, HSV replic up inactive and HSV replic up primary fold 1.1.
`COCc1ccc(CN2CCCC(CO)(Cc3cccc(Cl)c3)C2)o1` (stereo unspecified) gave PKD1 kinase inh 1, RGS16-Gao HTS 109, HSV replic up inactive, INS promoter inh -80, INS promoter inh cell count 90 and HSV replic up primary fold 1.
COc1ccc(C(=O)OCC(=O)N2C(C)CCCC2C)cc1[N+](=O)[O-] (stereo unspecified) was read as PKD1 kinase inh 2, RGS16-Gao HTS 103, HSV replic up inactive and HSV replic up primary fold 1.
COc1ccc(CCN(CC(=O)NC(C)(C)C)C(=O)Cn2nnc(-c3ccc(C)o3)n2)cc1OC was read as PKD1 kinase inh -7, RGS16-Gao HTS 97, HSV replic up inactive, INS promoter inh 20, INS promoter inh cell count 98 and HSV replic up primary fold 0.95.
`CCN(CC)S(=O)(=O)c1ccc(/C=C/C(=O)OCC(=O)Nc2ccc(S(N)(=O)=O)cc2)cc1` gave GALR2 agonist -2.2, PKD1 kinase inh -2, RGS16-Gao HTS 114, HSV replic up inactive, INS promoter inh 0, INS promoter inh cell count 46 and HSV replic up primary fold 1.
Screening O=C1NCCC/C1=N\Nc1ccc(Br)cc1 returned RGS16-Gao HTS 98, HSV replic up inactive and HSV replic up primary fold 1.1.

Part of the list above in order of number of heavy atoms, high to low:
C=CCn1c(SCC(=O)c2ccc(O)c(O)c2)nnc1-c1ccccc1OC was read as GALR2 agonist -1.7, PKD1 kinase inh -1, RGS16-Gao HTS 53, HSV replic up inactive, INS promoter inh 15, INS promoter inh cell count 71 and HSV replic up primary fold 0.98.
Screening COc1cccc(CNc2ccc(S(=O)(=O)Nc3nccs3)cc2)c1O returned GALR2 agonist -1.7, PKD1 kinase inh -4, RGS16-Gao HTS 98, HSV replic up inactive, INS promoter inh 44, INS promoter inh cell count 179 and HSV replic up primary fold 1.
COCCCN(C(=O)Nc1ccc(C)c(C)c1)C(C)c1ccccn1 (stereo unspecified) was read as GALR2 agonist -3.0, PKD1 kinase inh 1, RGS16-Gao HTS 100, HSV replic up inactive and HSV replic up primary fold 0.97.

No enrichment for hits; overall some 1.2% were active at least once.
